# Screens as filed in PubChem.
# miR-21 reporter: miR-21 reporter, rising signal. Potency, µM (top dose mostly 38.3 µM), for the others: at the top dose reporter change, positive = more light. HeLa miR-21 FLuc reporter, luciferase, 48 h. 340,000 tested, under 10 active; active = well fitted rising curve with a large enough effect; inconclusive = small, poorly fitted or top-dose-only effect; inactive = no such curve, though single readings can be large or run the other way;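 also: % of control where 0% means no effect; miR-21 action dims this reporter so a rising signal means less miR-21 action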
#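 HeLa cells endogenously expressing miR-21, stably carrying CMV-driven firefly luciferase with a downstream miR-21 binding site, 2000 cells/well. Titrations up to approximately 40 uM, 48 hours; luciferase luminescence read.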
# Rango release inh: inhibitors of RanGTP-induced Rango-importin beta complex dissociation; O95149+P62826; Biochemical FRET Rango-importin beta, RanGTP-induced dissociation; Potency, µM (series often up to 46.1 µM), for inactives: top-dose activity change, negative = inhibition; 0.071% of 340,000 active; AID 540253; active means falling FRET ratio curve, often poorly fitted, with flat reads before Ran was added; inconclusive means other falling curves, or compound fluorescence or quenching; inactive means flat or rising ratio curve;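 also: potency is read from the fitted curve at half-maximal effect; % of control where 0% means no effect; nearly all actives have a fitted effect of over 45% in size; -100% = wells without RanGTP and RCC1; the record marks most hits as doubtful in a second field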
#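 Compounds preincubate 5 min with complex of recombinant Rango and importin beta in PBS with 1 mM DTT. Ran (0.6 uM) loaded with 2 mM GTP plus 0.2 uM RCC1 starts dissociation; FRET is recorded 45 min later.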
# Rango-impB inh: Rango-importin beta binding inhibition; Q14974; Potency, µM (top dose mostly 92.2 µM), for the others: at the top dose inhibition of complex formation; 0.031% of 340,000 active; Rango CFP/YFP FRET sensor + importin beta, 45 min; AID 540263; active = rising FRET ratio curve, often small or poorly fitted; inconclusive = mostly compound fluorescence or quenching in the first reads; inactive = flat curves in all reads;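 also: potency is read from the fitted curve at half-maximal effect; 0% = DMSO wells and 100% = buffer wells lacking importin beta; nearly all actives have a fitted effect of over 15% in size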
# Target sequence (Q14974 whole entry, looked up): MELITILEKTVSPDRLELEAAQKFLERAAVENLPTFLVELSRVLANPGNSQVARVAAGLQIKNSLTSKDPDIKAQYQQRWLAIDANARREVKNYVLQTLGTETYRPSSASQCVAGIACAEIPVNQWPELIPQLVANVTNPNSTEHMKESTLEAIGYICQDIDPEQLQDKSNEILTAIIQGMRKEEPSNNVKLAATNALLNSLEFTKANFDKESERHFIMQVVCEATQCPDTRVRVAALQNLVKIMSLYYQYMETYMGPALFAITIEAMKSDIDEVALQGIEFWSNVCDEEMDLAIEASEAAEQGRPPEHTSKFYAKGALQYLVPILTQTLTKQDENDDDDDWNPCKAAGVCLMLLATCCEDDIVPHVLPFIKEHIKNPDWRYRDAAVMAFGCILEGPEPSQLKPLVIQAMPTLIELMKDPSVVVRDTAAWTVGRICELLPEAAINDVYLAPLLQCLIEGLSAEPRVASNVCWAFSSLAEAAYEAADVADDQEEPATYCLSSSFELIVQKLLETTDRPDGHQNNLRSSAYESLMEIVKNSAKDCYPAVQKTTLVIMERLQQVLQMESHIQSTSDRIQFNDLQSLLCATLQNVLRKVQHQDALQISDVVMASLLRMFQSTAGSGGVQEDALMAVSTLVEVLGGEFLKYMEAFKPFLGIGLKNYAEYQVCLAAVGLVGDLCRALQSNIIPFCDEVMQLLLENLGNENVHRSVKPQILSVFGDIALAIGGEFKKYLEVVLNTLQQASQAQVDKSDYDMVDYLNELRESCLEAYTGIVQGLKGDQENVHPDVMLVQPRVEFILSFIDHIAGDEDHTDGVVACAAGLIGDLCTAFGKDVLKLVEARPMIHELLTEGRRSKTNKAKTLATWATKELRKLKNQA
#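 FRET biosensor (snurportin 1 IBB flanked by EYFP and cerulean), 50 nM, with compound 5 min, then 0.125 microM importin beta in PBS, 1 mM DTT, 0.02% Tween-20, 0.1% BSA. CFP/YFP ratio read after 45 min at room temperature; pre-read flags interference.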
# GLA inh pH 4.5: inhibitors of human alpha-galactosidase A at pH 4.5. 230,000 tested, under 10 active. purified enzyme, 4-MU-alpha-Gal fluorescence, pH 4.5. AID 1467. activity change, negative = inhibition, % at 105 µM; inconclusive = small, poorly fitted or top-dose-only inhibition, or a rising curve; inactive = flat fitted curve, though single readings scatter; no compound was filed as active;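 also: 0% = full activity with enzyme and -100% = basal without enzyme; dose as in the result columns while the protocol names 77 µM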
# Active calls of the source: *; u = inconclusive; x = not tested or not shown; & = joins results of further samples. An excerpt; rates above refer to the full screens.
miR-21 reporter	Rango release inh	Rango-impB inh	GLA inh pH 4.5	SMILES
22%	29%	-2.7%	3	COc1ccc(NC(=O)Cc2ccc(-c3ccccc3)cc2)cn1
7%	u	-0.6%	1	O=C(c1ccc(Cl)c(S(=O)(=O)N2CCCC2)c1)N1CCN(c2ccccc2)CC1
0%	2%	0.2%	-10	COc1ccc(OC)c(S(=O)(=O)NC(N)=NCCc2ccccc2)c1
x	-16%	3.2%	x	COc1ccccc1C(=O)NC(=O)CSc1nnc2ccccn12
26%	4%	2.3%	-1	CC(C)(C)OC(=O)C(Cl)(C(=O)OC(C)(C)C)c1ccc2nnnn2n1
x	-8%	3.6%	x	Cc1ccc(N2CC(C(=O)OCC(=O)Nc3ccccc3C)CC2=O)cc1 (stereo unspecified)
-2%	2%	4.7%	-20	O=C1NC2(CCCCC2)C(=O)N1Cc1ccc([N+](=O)[O-])cc1
x	28%	-0.1%	x	NC(=O)c1ccc(NC(=O)CCc2nc3sc4c(c3c(=O)[nH]2)CCCC4)cc1
x	0%	0.2%	x	Cc1c(NC(=O)CC2CC(C)OC2=O)c(=O)n(-c2ccccc2)n1C (stereo unspecified)
x	-29%	u	x	Cc1c2c(cc3c1[nH]c1ccccc13)C=NCC2
-3%	-5%	-3.2%	-12	CCCn1c(=O)c(F)cn(Cc2ccc(OC)c([N+](=O)[O-])c2)c1=O
-7%	10%	-2.4%	-13	CCC(O)CNC(=O)CCc1nnc(C2(c3ccc(Cl)cc3)CCC2)o1 (stereo unspecified)
2%	3%	7.7%	-1	CN(C(=O)COC(=O)c1nc(-c2ccccc2)n(-c2ccccc2)n1)C1CCS(=O)(=O)C1 (stereo unspecified)
1%	12%	u	x	Cc1cc(C(=O)NCc2ccccc2F)c2ccccc2n1
-3%	u	0.0%	-7	CC(NC(=O)CCC(=O)c1ccc(F)cc1)C1CC2CCC1C2 (stereo unspecified)

# Next structures
miR-21 reporter	Rango release inh	Rango-impB inh	GLA inh pH 4.5	SMILES
27%	18%	3.6%	-1	Cc1ccc(NC(=O)C(=O)c2c(-c3ccccc3)cc3ccccn23)cc1S(=O)(=O)N1CCOCC1
-11%&-31%	-3%	0.5%	x	COc1cc(OC)c(N(C)C(=O)c2cn(C)c(=O)c3cc(OC)c(OC)cc23)cc1Cl
0%	-11%	1.3%	x	CC1CCCCC1NC(=O)CCS(=O)(=O)c1ccc2c(c1)NC(=O)CS2 (stereo unspecified)
-3%	-4%	3.8%	5	C=CCn1c(COc2ccc(Cl)cc2)nnc1SCC(=O)NCC(=O)OCC
-10%	0%	-1.6%	5	O=C(Nc1ccccc1)c1nn(-c2ccccc2)c(=O)cc1C(F)(F)F
-5%	-5%	-0.1%	3	COC(=O)c1ccccc1NC(=O)NCc1ccccn1
-34%	16%	-2.8%	-2	CN(C)c1ccc(C(=O)OCc2ccc(Br)cc2)cc1
1%	u	u	x	CC(C)CC1NC(C(=O)O)Cc2c1[nH]c1ccccc21 (stereo unspecified)
-1%	122%	-0.7%	x	CCOc1ccc(CCNC(=O)C2CCCN(S(C)(=O)=O)C2)cc1OCC (stereo unspecified)
x	5%	1.7%	x	Cc1cccc(NC(=O)CSCC(=O)N(C)Cc2ccc3c(c2)OCCO3)c1
x	4%	3.2%	x	Cc1ccc(CNC(=O)c2ccc(N3CCC4(CC3)CC(c3cccc(Br)c3)=NO4)c(NC(=O)c3cccc(C)c3)c2)cc1
20%	-5%	-3.0%	-1	CCCC(=O)N1CCN(c2ccc(NC(=O)c3ccc([N+](=O)[O-])o3)cc2Cl)CC1
4%	2%	0.7%	x	O=C(NC1CCN(Cc2ccccc2)CC1)C1CCN(S(=O)(=O)c2cccc([N+](=O)[O-])c2)CC1
-2%	-8%	3.7%	-4	CCOC(=O)c1cccc(NC(=O)CCS(=O)(=O)c2cccc3nsnc23)c1
2%	24%	8.1%	3	O=S(CC(O)COCc1ccc(Cl)cc1)c1ccccn1 (stereo unspecified)

# (further entries)
miR-21 reporter	Rango release inh	Rango-impB inh	GLA inh pH 4.5	SMILES
x	-3%	0.3%	x	C[C@H](CO)N1C[C@H](C)[C@@H](CN(C)Cc2ccncc2)Oc2c(NS(=O)(=O)c3ccccc3)cccc2C1=O
-2%	-17%	-0.4%	4	COc1ccccc1CNC(=O)CCS(=O)(=O)c1cccc2nonc12
0%	-5%	1.8%	-10	CCOC(=O)CCc1c(C)nc(-n2[nH]c(C)c(CCO)c2=O)[nH]c1=O
-4%	31%	u	x	CC1(C)CC(NC(=O)c2ccc(Br)o2)CC(C)(C)N1
x	-11%	0.7%	x	O=C(Nc1cc(-c2ccccc2)nn1C1CCCCC1)c1ccc(Cl)cc1
-1%	1%	-1.1%	-26	CCOC(=O)N1CCN(C(=O)CSc2nc3c(c(=O)n2-c2ccccc2OC)SCC3)CC1
-2%	-13%	8.8%	6	CC(C)(C)NC(=O)c1ccc(NC(=O)C2COc3ccccc3O2)cc1 (stereo unspecified)
2%	7%	-2.2%	5	CC(C)(C)C1(O)CC(C(F)(F)F)=NN1C(=O)CCCc1ccccc1 (stereo unspecified)
-4%	3%	0.2%	0	CCOC(=O)c1cnn(-c2nc(CC)nc3sc4c(c23)CCC4)c1N
-3%	9%	4.5%	x	CCOC(=O)c1ccc(NC(=O)NCc2ccccn2)cc1
0%	18%	-1.7%	-1	Cc1ccc(S(=O)(=O)N(C)CC(=O)N2CCc3ccccc32)cc1
1%	16%	-0.8%	1	O=C(CSc1ccccc1F)NC(=O)NCc1ccco1
1%	-5%	-1.1%	8	COc1ccc(N2CCN(C(CNS(C)(=O)=O)c3ccco3)CC2)cc1 (stereo unspecified)
-8%	-5%	u	0	Cc1cc(-c2csc(N)n2)c(C)n1Cc1ccco1
0%	-16%	-1.7%	7	COc1cc2[nH]c(=O)n(Cc3ccc(C(=O)NCCCN4CCN(C)CC4)cc3)c(=O)c2cc1OC

# Only Rango-impB inh, for three of the compounds above:
compound | Rango-impB inh
COc1ccccc1CNC(=O)CCS(=O)(=O)c1cccc2nonc12 | -0.4%
CCOC(=O)c1cnn(-c2nc(CC)nc3sc4c(c23)CCC4)c1N | 0.2%
CC(C)(C)C1(O)CC(C(F)(F)F)=NN1C(=O)CCCc1ccccc1 (stereo unspecified) | -2.2%

# New compounds follow:
miR-21 reporter	Rango release inh	Rango-impB inh	GLA inh pH 4.5	SMILES
x	0%	2.1%	x	COc1ccc(NC(=O)COC(=O)c2ccc(N3CCCC3=O)cc2)cc1
-1%	x	x	-12	O=C(CN1CCN(Cc2ccc3c(c2)OCO3)CC1)N1CCc2[nH]c3ccccc3c2C1
-2%	4%	1.1%	0	CCOc1ncccc1C(=O)OCc1ccc([N+](=O)[O-])cc1
x	3%	7.0%	x	CC1CCCN(S(=O)(=O)c2ccc(NC(=O)CN3C(=O)NC(C)(c4ccccc4)C3=O)cc2)C1 (stereo unspecified)
x	-8%	-0.7%	x	NC(=O)CCCn1c(C(=O)c2cc(Cl)c(N)c(Cl)c2)c2ccc(C(F)(F)F)cc2[n+]1[O-]
-2%	3%	-1.4%	1	COc1ccc(OCC(=O)Nc2cccc(C(C)=O)c2)cc1
-10%	3%	-0.9%	x	O=C(N/N=C/c1cccnc1)c1cc(-c2ccccc2)nc2ccccc12
5%	-14%	-0.2%	x	CCCCN1CC(=O)N2[C@H](c3ccc(Cl)cc3)[C@@H]3C(=O)N(CC)C(=O)[C@@H]3[C@]2(Cc2ccccc2)C1=O
0%	14%	-0.5%	-8	COC(=O)c1scc(C)c1NC(=O)/C=C/C(=O)O
-14%	-5%	u	x	CCCCNC(=S)NNC(=O)c1cc(-c2ccncc2)nc2ccccc12
-25%	0%	1.0%	-5	Cc1ccc(/C=C/C(=O)c2ccc(O)cc2)cc1
0%	1%	7.1%	12	Cc1c(NC(=O)CCN2C(=O)c3ccccc3C2=O)c(=O)n(-c2ccccc2)n1C
-20%	-10%	1.0%	-21	O=C(N/N=C/c1cn[nH]c1-c1ccccc1)c1ccco1
-1%	14%	-0.9%	8	CC(C)c1nnc(NC(=O)CCC(=O)N2CCN(C3CCCCC3)CC2)s1
-3%	8%	0.1%	x	CCn1cc(C(=O)NCCCN2CC(C)CC(C)C2)c(=O)c2cc(S(=O)(=O)N(C)C3CCCCC3)ccc21 (stereo unspecified)

# (continued)
miR-21 reporter	Rango release inh	Rango-impB inh	GLA inh pH 4.5	SMILES
x	-1%	-1.6%	x	COc1ccc(N(C)S(=O)(=O)c2cccc(C(=O)N3CCN(c4cccc(C)c4C)CC3)c2)cc1
-3%	x	x	-6	Cc1ccc2c(Cl)cc(Cl)c(OCC(=O)Nc3ccc(C)c(S(=O)(=O)N(C)C)c3)c2n1
-1%	1%	-1.3%	x	CCOC(=O)C1CCN(C(=O)COC(=O)CSc2ccc(C(N)=O)cc2[N+](=O)[O-])CC1
x	12%	0.8%	x	NC(=O)C1CCCN(C(=O)c2cccc(S(=O)(=O)N(Cc3ccccc3)c3ccccc3)c2)C1 (stereo unspecified)
x	9%	-0.3%	x	O=C(COC(=O)c1ccc(O)cc1)Nc1ccc2c(c1)OCO2
x	-1%	u	x	COCCNc1nnc(SCC(=O)Nc2nnc(-c3ccccc3)o2)s1
-36%	-16%	-1.5%	3	Cc1ccc(-c2nc(NCC3CCCO3)sc2C)cc1 (stereo unspecified)
2%	-1%	4.8%	2	COCCCNC(NC(=O)c1ccc(OC)cc1)C(Cl)(Cl)Cl (stereo unspecified)
-38%	18%	11%	-3	CCOc1ccc(NC(=O)c2ccco2)c([N+](=O)[O-])c1
x	0%	3.2%	x	COc1ccc(NC(=O)CCNC(=O)c2ccc([N+](=O)[O-])cc2)cc1S(=O)(=O)N1CCCCC1
-2%	6%	2.0%	-2	O=C(NCc1ccccc1)c1cc(=O)[nH]c2ccccc12
-14%	u	u	-6	O=C1/C(=C/c2cccs2)N=C(c2cccs2)N1Nc1ccccc1
-34%	1%	-1.2%	-14	O=C(Cn1c(SCc2ccccc2)nc2ccccc21)N1CCOCC1
0%	2%	-0.8%	-4	c1ccc(-c2ccc(Oc3cc(N4CCOCC4)nc(-c4ccccc4)n3)cc2)cc1
-7%	2%	-4.5%	7	CN(C)C(/C=C/Nc1ccc(C#N)cc1)=C(C#N)C#N

# Quoted at random: two records from the list, in no set order.
miR-21 reporter	Rango release inh	Rango-impB inh	GLA inh pH 4.5	SMILES
-3%	x	x	-6	Cc1ccc2c(Cl)cc(Cl)c(OCC(=O)Nc3ccc(C)c(S(=O)(=O)N(C)C)c3)c2n1
-7%	2%	-4.5%	7	CN(C)C(/C=C/Nc1ccc(C#N)cc1)=C(C#N)C#N

# (continued)
miR-21 reporter	Rango release inh	Rango-impB inh	GLA inh pH 4.5	SMILES
0%	-23%	1.4%	-1	O=C(/C=C/c1cc[n+](CC(=O)c2ccc3cccc4c3c2CC4)cc1)c1ccc2cccc3c2c1CC3
1%	-2%	-1.6%	2	COC(=O)c1cc2ccsc2n1CC(=O)N(C)C1CCCCC1
2%&7%	8%	-3.1%	x	CCOc1ccc(NS(=O)(=O)c2c(C)nc3sc(CC)nn3c2=O)cc1
28%	0%	0.7%	-7	COc1ccc(-c2nc(NC(=O)C3CC(=O)N(c4ccc5c(c4)OCCO5)C3)sc2C)cc1 (stereo unspecified)
x	-7%	1.0%	x	COc1ccc(NC(=O)CSc2nc3ccccc3c(=O)[nH]2)cc1S(N)(=O)=O
-1%	-28%	u	-8	O=C(NCCN1CCN(c2ccccc2)CC1)c1cccn2c(=O)c3cc(Cl)ccc3nc12
x	-10%	0.3%	x	CN1CCC(N(C)C(=O)c2cc(-c3ccc(F)cc3)nc3ccccc23)CC1
-6%	-6%	5.2%	-10	O=C(O)CN1C(=O)S/C(=C\c2cccnc2)C1=O
-26%	0%	0.2%	x	CCN1CCN(C(=O)c2ccc3c(=O)n(CCc4ccccc4)c(=O)[nH]c3c2)CC1
0%	0%	6.3%	-12	COc1ccccc1NS(=O)(=O)c1cc([N+](=O)[O-])ccc1N/N=C/c1c(C)[nH]c2ccccc12
26%	-6%	3.8%	-16	CN(C)S(=O)(=O)c1ccc(-c2csc(N/N=C/c3ccc(O)cc3)n2)cc1
x	9%	3.7%	x	CN(Cc1ccc(Cl)cc1Cl)C(=O)CNC(=O)c1ccc2c(c1)OCO2
-2%	-11%	7.5%	8	N#Cc1ccc(C(=O)Nc2cccc3cccnc23)c(F)c1
-11%	0%	-1.5%	x	COc1ccc(N2Cc3ccccc3C2=O)cc1
